Compound activity (PubChem BioAssay)
Proteasome disasm = blocks ATP-dependent breakdown of the yeast 26S proteasome; anti-FLAG beads, GFP-proteasome disassembly, flow cytometry; AID 751; inhibition of disassembly, % (no concentration beside the values); actives 0.2% (n = 24,000);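 active = above 40%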;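 also: plate controls were ATP control with full disassembly for no effect and ATP-gamma-S intact proteasomes for full effect; higher percent means more bead fluorescence retained so stronger block of disassembly; stock transfer was 100 nL into about 10 µL; wells with too few beads may also be inconclusive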
VCAM-1 up = enhancers of VCAM-1 display on endothelial cells, cell-based, plate reader, pooled HUVEC, TNFa stimulus (AID 455) | HUVEC TNFa-induced VCAM-1 immunofluorescence, plate reader; numbers were filed only for top-ranked candidate wells | augmentation, % at 5 µM | actives 0.2% (n = 10,000);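 active = a compound raising TNF-alpha-driven VCAM-1 surface staining, with its hit status upheld on visual or statistical review; inactive = the rest, including hits rejected on review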;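 also: 0% = TNFa with vehicle and 100% = strongest image-checked hit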
An asterisk follows results filed as active; i = inactive; / = not tested or not shown. A portion of the library; the hit share may differ from the screen's.

entry	Proteasome disasm	VCAM-1 up	structure
1	-1.5	i	CCN(CC)Cc1csc(C(N)=O)c1
2	4.0	i	O=S(=O)(NCCc1ccncc1)c1cc(Br)ccc1F
3	-4.2	i	O=C(Nc1ccccc1)N(CCN1CCOCC1)Cc1ccccc1F
4	3.7	/	CCS(=O)(=O)N1CCCC(C(=O)NCC2CCCO2)C1 (stereo unspecified)
5	0.0	i	O=S(=O)(c1ccccc1)N1CCN(S(=O)(=O)c2ccccc2)C1
6	0.1	/	O=C(O)C1CCN(c2ncccn2)CC1
7	-1.0	/	O=C(Cn1c(=O)n(CCCC(=O)NC2CCCC2)c(=O)c2ccccc21)NCCC1=CCCCC1
8	-1.4	/	COc1cccc(-n2nnc3c(=O)n(Cc4ccc(Br)cc4)cnc32)c1
9	-2.6	/	Cc1ccnc(NC(=O)CCCOc2cc(=O)n(C)c3ccccc23)c1
10	-1.5	i	CCOCCCNC(=O)CC1Oc2ccc(C)cc2NC1=O (stereo unspecified)
11	-1.2	i	Cc1n[nH]c(C)c1S(=O)(=O)Nc1ccc2c(c1)OCCO2
12	2.4	i	COC(=O)c1nc2n(n1)C(c1ccc(OC)c(OC)c1)C(C(=O)OC1CCCCC1)=C(C)N2 (stereo unspecified)
13	0.1	/	CCOc1cccc(C2c3c(oc4ccccc4c3=O)C(=O)N2c2ccccn2)c1 (stereo unspecified)
14	0.5	/	COC(=O)c1cc2oc3ccccc3c2n1Cc1ccccn1
15	-0.5	i	COCCOC(=O)C1=C(C)NC(C)=C(C(=O)OC(C)C)C1c1cccc([N+](=O)[O-])c1 (stereo unspecified)
16	4.4	i	CCN(CC)c1nc2cc(OC)ccc2cc1C#N
17	0.0	/	CCOc1ccc(C(=O)N(CN2CCCC2=O)c2ccccc2)cc1
18	1.7	i	COc1ccc2cc(C#N)c(NC(C)C)nc2c1
19	-0.5	/	CCOC(=O)N1CCN(S(=O)(=O)c2ccc(OCC)c3ccccc23)CC1
20	-0.2	i	O=C(C(Cc1ccccc1)n1cccc1)N1CCCCCC1 (stereo unspecified)
21	-0.5	/	CCCn1c(CNS(=O)(=O)c2ccc(C)cc2)nc2ccccc21
22	1.0	i	COc1ccccc1C(=O)NCC(c1cccnc1)N(C)C (stereo unspecified)
23	8.8	/	O=C(COc1ccccc1O)Nc1ccc(Cl)cc1
24	-1.0	i	CCn1cc(C2=NOC(C(=O)Nc3cc(C)nn3-c3ccccc3)C2)c(C)n1 (stereo unspecified)
25	0.0	i	COc1ccc(/C=N/n2c(=O)[nH]c3c([nH]c4ccc(C)cc43)c2=O)cc1CN1CCOCC1
26	-1.1	/	COc1ccc(NC(=O)C2CCCN(S(=O)(=O)c3cnc[nH]3)C2)cc1 (stereo unspecified)
27	-0.9	i	N#Cc1cc2sc3nnc(-c4ccncc4)n3c2cc1C#N
28	1.0	i	CCOC(=O)c1c(NC(=O)CSc2nnc(-c3ccc(OC)cc3)o2)sc2c1CCC2
29	-0.8	i	O=C(CSc1ncn[nH]1)NC1CC2CCC1C2 (stereo unspecified)
30	-0.6	/	C=CCNC(=O)C1CCN(S(=O)(=O)CC)CC1
31	-1.0	i	O=C(CSc1ncnc2c1oc1ccccc12)Nc1ccccc1F
32	1.3	/	Cc1ccc(-c2nc(C(=O)NC3CCCCCC3)no2)cc1
33	-3.3	/	COc1ccc(CCNC(=O)C2CCN(Cc3nc(-c4ccccc4F)oc3C)CC2)cc1OC
34	-2.5	/	O=C(COc1ccccc1)NCCn1ccc2ccccc21
35	0.6	i	Cc1cc(Cl)ccc1OCCCC(=O)N1CCOCC1
36	0.2	/	O=C(NCc1cccs1)C1CCN(S(=O)(=O)N2CCCC2)CC1
37	0.1	/	O=C(Nc1cccnc1)C(Cc1ccccc1)n1cccc1 (stereo unspecified)
38	0.1	i	COc1cc(C(=O)N2CCCC(c3nc(-c4cccs4)no3)C2)cc(OC)c1OC (stereo unspecified)
39	1.3	/	Cc1ccc(CN2CC34C=CC(O3)C(C(=O)NCc3ccco3)C4C2=O)cc1 (stereo unspecified)
40	-0.5	/	O=C1N2CCSC2=NC1(NS(=O)(=O)c1ccccc1)C(F)(F)F (stereo unspecified)

A draw from above in order of count of non-hydrogen atoms, smallest number first:
entry	Proteasome disasm	VCAM-1 up	structure
29	-0.8	i	O=C(CSc1ncn[nH]1)NC1CC2CCC1C2 (stereo unspecified)
23	8.8	/	O=C(COc1ccccc1O)Nc1ccc(Cl)cc1
35	0.6	i	Cc1cc(Cl)ccc1OCCCC(=O)N1CCOCC1
32	1.3	/	Cc1ccc(-c2nc(C(=O)NC3CCCCCC3)no2)cc1
40	-0.5	/	O=C1N2CCSC2=NC1(NS(=O)(=O)c1ccccc1)C(F)(F)F (stereo unspecified)
21	-0.5	/	CCCn1c(CNS(=O)(=O)c2ccc(C)cc2)nc2ccccc21
31	-1.0	i	O=C(CSc1ncnc2c1oc1ccccc12)Nc1ccccc1F
24	-1.0	i	CCn1cc(C2=NOC(C(=O)Nc3cc(C)nn3-c3ccccc3)C2)c(C)n1 (stereo unspecified)
38	0.1	i	COc1cc(C(=O)N2CCCC(c3nc(-c4cccs4)no3)C2)cc(OC)c1OC (stereo unspecified)
28	1.0	i	CCOC(=O)c1c(NC(=O)CSc2nnc(-c3ccc(OC)cc3)o2)sc2c1CCC2
25	0.0	i	COc1ccc(/C=N/n2c(=O)[nH]c3c([nH]c4ccc(C)cc43)c2=O)cc1CN1CCOCC1
33	-3.3	/	COc1ccc(CCNC(=O)C2CCN(Cc3nc(-c4ccccc4F)oc3C)CC2)cc1OC

(cont.)
entry	Proteasome disasm	VCAM-1 up	structure
41	0.5	i	CCC(c1nnnn1C(C)(C)C)N1CCN(C2CCCC2)CC1 (stereo unspecified)
42	-0.6	i	CCC(=O)N1C(=O)CCN(C(C)=O)c2ccccc21
43	-0.2	i	CC1CCCc2sc3nc(NCc4ccco4)n4ncnc4c3c21 (stereo unspecified)
44	0.0	/	Cc1cccc(C)c1NC(=O)C1(N(Cc2ccco2)C(=O)CC2NC(=O)NC2=O)CCCCC1 (stereo unspecified)
45	-0.5	i	COc1ccc(N(CC(=O)Nc2ccc3c(c2)OCO3)S(=O)(=O)c2c(C)nn(C)c2C)cc1
46	0.1	i	O=c1[nH]c2cc3c(cc2cc1C(c1nnnn1Cc1ccccc1)N1CCCc2ccccc21)OCO3 (stereo unspecified)
47	-7.4	i	Cc1ccc2[nH]c3c(c2c1)CN(C(=O)CN1CCN(c2cccc(C)c2C)CC1)CC3
48	-2.5	i	CC(C(=O)N1CC2(C)CC1CC(C)(C)C2)N1C(=O)c2ccccc2C1=O (stereo unspecified)
49	-0.9	i	c1cncc(-c2nnc(SCCSc3nnc(-c4cccnc4)o3)o2)c1
50	2.7	/	CCOC(=O)C1CCN(c2cc(=O)n(-c3ccccc3Cl)c(=O)[nH]2)CC1
51	1.1	/	COc1ccc(C2CC(=O)N3CN(c4ccc(C)c(Cl)c4)CSC3=C2C#N)cc1 (stereo unspecified)
52	0.1	/	CCOC(=O)C(C)n1cnc2c(cnn2-c2ccc(Cl)cc2)c1=O (stereo unspecified)
53	0.6	i	Cn1c(C(=O)N2CCN(C(=O)c3ccco3)CC2)cc2c(=O)n3ccccc3nc21
54	-0.2	/	CCCC(=O)N(c1ccc(OC)cc1)C1C=CS(=O)(=O)C1 (stereo unspecified)
55	-0.6	/	CCCCNC(=O)C1CC(=O)N(CCC(C)C)C1 (stereo unspecified)
56	0.7	/	CCN1C(=O)CSc2ccc(C(=O)NCc3ccco3)cc21
57	-1.4	/	O=C(NCc1cccnc1)c1nnc(Cc2ccc(F)cc2)o1
58	0.6	/	CC1CCCCN1S(=O)(=O)c1ccc(C(=O)Nc2nnc(-c3cccs3)o2)cc1 (stereo unspecified)
59	-3.0	/	CCOCCCNC(=O)Cn1cc2c(n1)CCCC2
60	0.2	i	Cc1ccc(Cl)c(Nc2ccccc2C(=O)O)c1Cl
61	0.3	i	CC1=C(C(=O)OC2CCCCCC2)C(c2ccc(C)o2)C2=C(CCCC2=O)N1 (stereo unspecified)
62	0.6	/	CC(C)NS(=O)(=O)c1cccc2nsnc12
63	-0.5	i	C=CCn1c(C)cc(C(=O)CSc2nc3ccccc3o2)c1C
64	0.5	i	Cc1ccc(-c2cc(C(=O)NCc3ccc4c(c3)OCO4)no2)cc1
65	-1.2	i	Cn1c(=O)c2ncn(CC(=O)NCCOc3ccc(C(C)(C)C)cc3)c2n(C)c1=O
66	2.1	/	CCCOC(=O)C1C2C=CC3(CN(c4ccc(Cl)c(F)c4)C(=O)C13)O2 (stereo unspecified)
67	-0.8	i	O=C(NC1(C(F)(F)F)C(=O)Nc2c1c(=O)[nH]c(=O)n2Cc1ccco1)C1CCCCC1 (stereo unspecified)
68	3.7	/	COC(=O)C1C(=O)C2=C(CC1C)NC(=O)CC2c1cccc(C)c1 (stereo unspecified)
69	-3.4	i	Cc1cccc(C)c1NC(=O)N1CCN(C2CCCCC2)CC1
70	0.0	/	COc1cccc(-c2nc(CS(=O)CC(=O)NC3CCCC3)c(C)o2)c1 (stereo unspecified)
71	4.5	/	CC1(C(=O)NC2CCCCCCC2)CCC(=O)N1Cc1ccco1 (stereo unspecified)
72	1.1	/	Cn1nc(-c2ccc(Cl)cc2)c2cc(C(=O)NCC3CCCO3)sc21 (stereo unspecified)
73	-1.1	i	CC(C)[N+]1(C)[C@@H]2CC[C@H]1CC(OC(=O)C(CO)c1ccccc1)C2 (stereo partly specified)
74	1.3	/	O=C(CCCCn1c(=O)c2ccccc2n(CC(=O)Nc2ccccc2)c1=O)NCc1ccco1
75	4.5	i	FC(F)(F)c1nnc2sc(-c3cccs3)nn12
76	-1.5	i	O=C(NC1CCCC1)c1ccc2nc[nH]c2c1
77	0.2	i	O=C(O)CCC(=O)Nc1ccc(S(=O)(=O)Nc2nccs2)cc1
78	0.3	/	CCc1cccc(Nc2cc(C)nc3ncnn23)c1
79	-1.5	i	CSc1nnc2n(CCc3ccccc3)c(=O)c3c4c(sc3n12)CCCC4
80	0.4	/	CC(=O)Oc1cc2c(C(=O)NCCCN3CCOCC3)c(C)oc2c2ccccc12
81	0.2	/	CCn1cc(C(=O)NCc2ccco2)c(=O)c2cc(S(=O)(=O)N3CC(C)CC(C)C3)ccc21 (stereo unspecified)
82	1.1	/	N#Cc1ccc(NC(=O)C2CC(c3ccc(F)cc3)=NO2)cc1 (stereo unspecified)
83	-2.3	/	COc1ccccc1N1CCSC1C(N)=O (stereo unspecified)
84	-0.1	/	CC(C)C(=O)N1CCN(c2ccccc2N)CC1
85	1.7	/	COc1cc(NC(=O)c2ccc(NS(=O)(=O)c3c(C)noc3C)cc2)cc(OC)c1
86	0.8	/	Cc1ccc(Cn2nnc3c(=O)n(CC(=O)N4CCCc5ccccc54)cnc32)cc1
87	-0.3	/	CC(C)(O)c1cn(-c2nonc2N)nn1
88	0.8	/	COc1cccc(OCC(=O)Nc2c(C(=O)Nc3ccc(OC)cc3OC)oc3ccccc23)c1
89	-0.7	i	CN(C)S(=O)(=O)c1ccc2c(c1)C(CC(=O)O)OC2=O (stereo unspecified)
90	0.3	/	Cn1c(C(=O)N2CCN(C(=O)c3ccco3)CC2)cc2c(=O)n(C)c3ccccc3c21
91	2.3	/	COC(=O)Cn1c(CN(Cc2ccccc2)Cc2ccccc2)nc2c1c(=O)[nH]c(=O)n2C
92	-0.5	/	COc1ccc(-n2c(C)cc(=O)c3c2CC(C)(C)CC3=O)cc1
93	-3.1	/	Cn1c(=O)oc2cc(S(=O)(=O)Nc3ccc(Cl)cc3F)ccc21
94	1.9	/	CCOc1ccccc1NC(=O)c1cc(S(=O)(=O)N2CCC3(CC2)OCCO3)ccc1F
95	-0.1	i	O=C1CCCCCN1CSc1nc2ccccc2s1
96	1.6	/	CC1CC(C)CN(CCCNC(=O)Cc2c(C(=O)O)[nH]c3ccccc23)C1 (stereo unspecified)
97	0.7	/	COc1ccc(NC(=O)CCCCn2c(=O)[nH]c3ccccc3c2=O)cc1
98	19.6	/	Cc1ccc(CCNS(=O)(=O)c2cnc[nH]2)cc1
99	-1.5	/	Cc1ccc2nc(-c3cccc(-c4nc5ccc(C)cc5o4)n3)oc2c1
100	-0.8	/	Cc1ccsc1C1C(C(=O)O)c2ccccc2C(=O)N1C (stereo unspecified)

(continued)
entry	Proteasome disasm	VCAM-1 up	structure
101	-1.2	/	COc1cccc(-c2nc(CS(=O)(=O)CC(=O)NCc3ccccc3)c(C)o2)c1
102	3.1	/	CCOc1ccc(C2CC(=O)NC3=C2C(=O)CCC3)cc1 (stereo unspecified)
103	-0.3	/	N#CC1=C(N)Oc2cc(O)ccc2C1c1ccncc1 (stereo unspecified)
104	6.3	/	CCC(=O)NCCSc1c[nH]c2ccccc12
105	0.0	/	CCOC(=O)c1ccc(NS(=O)(=O)c2cnc[nH]2)cc1
106	0.2	/	COc1ccc(NC(=O)C2CCCN2S(=O)(=O)c2ccc(F)cc2)cc1 (stereo unspecified)
107	-1.5	i	CCOC(=O)N1CCC(NC(=O)Cn2cc3c(n2)CCC(C)C3)CC1 (stereo unspecified)
108	1.0	i	COc1ccc(N(CC(=O)Nc2ccccc2SC)S(C)(=O)=O)cc1OC
109	-0.5	/	CCOc1cc2[nH]c(=O)n(CC3CCC(C(=O)NCCC(C)C)CC3)c(=O)c2cc1OCC (stereo unspecified)
110	3.2	i	Cc1cccn2c(=O)c3cc(C(=O)NC4CCCC4)c(=N)n(C4CCCC4)c3nc12
111	1.6	i	COc1cc(-c2nnc(SCC(=O)c3cc(C)n(CC4CCCO4)c3C)o2)cc(OC)c1OC (stereo unspecified)
112	-7.1	/	O=C(COc1ccc(Cl)cc1)NCc1nnc(SCC(=O)NCCc2ccccc2)o1
113	0.1	/	COc1ccccc1CNC(=O)c1cc2c(=O)n(C)c3ccccc3c2n1C
114	1.7	i	CC(C)(C)SCCNC(=O)COc1ccccc1
115	-5.2	/	N#CCSc1nc2ccccc2c(=O)n1CCC(=O)NC1CCCCC1
